# Screens deposited in PubChem by National Center for Advancing Translational Sciences (NCATS).
# HPGD block: HPGD (human) dehydrogenase inhibition | purified HPGD, NADH fluorescence kinetic, PGE2 substrate | hit rate 4.3% among 150,000 | P15428 | AID 894 | Potency, µM, for the others: top-dose activity change, negative = inhibition, actives largely listed as inhibitors; active = well fitted inhibition curve with a large enough effect (not every such curve was filed as active); inconclusive = small, poorly fitted or top-dose-only effect, or another doubt; inactive = no such curve, though single readings can be large or run the other way;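 also: top concentration of the series not given in the record; plate controls included wells without enzyme; inactives centre near -10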
# Target sequence (P15428 whole entry, looked up): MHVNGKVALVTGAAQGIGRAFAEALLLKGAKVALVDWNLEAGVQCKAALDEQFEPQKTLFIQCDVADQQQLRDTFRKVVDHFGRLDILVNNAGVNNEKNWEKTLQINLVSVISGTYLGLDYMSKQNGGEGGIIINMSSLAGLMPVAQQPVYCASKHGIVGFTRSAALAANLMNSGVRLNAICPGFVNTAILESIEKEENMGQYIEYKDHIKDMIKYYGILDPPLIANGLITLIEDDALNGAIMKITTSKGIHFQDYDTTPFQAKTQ
#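 NADH formation kinetics: reaction with 30 uM PGE2 and 1 mM NAD+ (final), 20 nM enzyme, Tris-HCl pH 8 with Tween 20, after 15 min compound preincubation at room temperature. Fluorescence change, last versus first of five reads.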
# * marks the source's active call; other numbers are inactive results; ? = inconclusive; & = joins results of further samples. % is scaled to controls: 0 for no effect and ±100 for the full control effect; potency is read from the fitted curve at half-maximal effect.
SMILES,HPGD block
Cn1c(CN2CCCC2)nc2cc(NC(=O)COc3ccccc3)ccc21,-4%
Cc1cc(C)cc(N(CC(=O)NCC2CCCO2)S(=O)(=O)c2c(C)noc2C)c1 (stereo not drawn),-2%
Cc1nnc2ccc(N3CCN(c4cccc(C(F)(F)F)c4)CC3)nn12,-21%
CN(C(=O)COc1ccc(C(C)(C)C)cc1)C1CCS(=O)(=O)C1 (stereo not drawn),-2%
COCCCNc1oc(-c2ccccc2OC)nc1C#N,?
COC(=O)c1cc(C(=O)OCC(=O)N2c3ccccc3NC(=O)C2(C)C)cc([N+](=O)[O-])c1,-2%
COCCn1c(SCC(=O)NCc2ccco2)nnc1C(C)C,-6%
COc1cc(CCN2C(=O)N[C@@H](c3ccccc3)C(C(C)=O)=C2C)cc(OC)c1OC,-7%
O=C(COc1cccc(NC(=O)c2ccco2)c1)c1ccc(F)cc1,-17%
C=CCn1c(SCC(=O)c2ccc(CNC(C)=O)o2)nc2ccccc2c1=O,-6%
Cc1ccc(C(=O)COC(=O)CNC(=O)CN2C(=O)c3ccccc3C2=O)cc1,-4%
CN(C)c1ccc(/C=N/NC(=O)c2ccc(CN3C(=O)c4cccc5cccc3c45)cc2)cc1,?
COc1ccc(Cl)c(Cn2c(NCc3ccccn3)nc3c2c(=O)n(C)c(=O)n3C)c1,-3%
Cc1cc(C(=O)N(C)Cc2ccc(Br)cc2)no1,-12%
Cc1ccc(NC(=O)CN2CCC(NC(=O)C3CCCCC3)CC2)c(Br)c1,0%
CCN(CC)C(=O)COc1ccc(S(=O)(=O)N2CCOCC2)cc1,-10%
COC(=O)c1sccc1NC(=O)CSc1ccccc1NS(=O)(=O)c1ccccc1Cl,-15%
NC1(C(=O)O)CC1,10%&-3%
O=C(NCCc1ccc(Cl)cc1)C1CCC(=O)N1Cc1ccccc1Cl (stereo not drawn),-11%
CCCN(CCC)C(=O)C1CCN(c2cc(C)nc3c(-c4ccc(OC)c(OC)c4)c(C)nn23)CC1,-16%
Cc1ccc(C(=O)N/C(=C\c2ccc(Cl)cc2)C(=O)NCCCN2CCOCC2)cc1,-13%
C=CCOc1ccc(CNc2nn[nH]n2)cc1OC,-4%
CCOC(=O)C1=NN(c2ccc(Cl)cc2)C(c2ccccc2)CC1=O (stereo not drawn),-17%
O=C(O)C1CC(=O)N(c2ccc(OCc3ccc(Cl)cc3Cl)cc2)C1 (stereo not drawn),14µM*
CCCCNC(=O)c1onc(CSc2ccc(C(C)C)cc2)c1C(=O)O,10µM*
# Later entries:
SMILES,HPGD block
Cc1nc(SCc2nc3ccccc3[nH]2)c2oc3ccccc3c2n1,-23%
CCc1cc2c(C)ccc(C)c2nc1SCC(=O)Nc1c(C)[nH]c(=O)[nH]c1=O,-23%
CCOC(=O)c1c(NC(=O)CC)sc(C(C)=O)c1C,?
Cc1ccc(C)n1NC(=O)c1ccc(Cl)cc1,-9%
NS(=O)(=O)c1cc2c(cc1Cl)NC(C1C[C@H]3C=C[C@@H]1C3)NS2(=O)=O (stereo partly drawn),-10%
COc1nc(C)nc2c1ccc1ccccc12,-7%
Cc1nc(C)c(/C(O)=C/c2nc3ccccc3oc2=O)s1,-8%
COc1ccc(-c2nnc3ccc(SCC(=O)N4CCCCC4)nn23)cc1OC,-25%
CC(=O)c1ccc(C(=O)Nc2ccc(N3CCOCC3)cc2)cc1,-11%
O=C(CCc1ccccc1)NC(=S)Nc1ccc(S(=O)(=O)N2CCOCC2)cc1,-5%
CCN1CCN(C(=O)Nc2ccccc2OC)CC1,-1%
CCOC(=O)c1sc(C(=O)OCC)c(OCCO)c1OCCO,-4%
O=C(C1Cc2ccccc2CN1S(=O)(=O)c1ccc(F)cc1)N1CCCCC1 (stereo not drawn),5%
CC(C)(C)SCCNC(=O)COc1ccc(Cl)cc1,-5%
CCN(CC)S(=O)(=O)c1ccc(C)c(NC(=O)Cn2c(=O)cnc3ccccc32)c1,-27%
CCC(C)Nc1nc(-c2cccc(OC)c2O)nc2ccccc12 (stereo not drawn),-4%
CCOC(=O)c1c(NC(=O)COc2cccc3c2CCN(CC)C3=O)sc2c1CCC2,?
O=C(CN1CCN(S(=O)(=O)c2ccc(Br)cc2)CC1)Nc1ccc2c(c1)OCO2,-11%
COc1ccc2[nH]c(-c3ccccc3)cc(=O)c2c1,?
COc1ccc(C(=O)Nc2ccccc2N2CCOCC2)cc1Br,-10%
Cc1ccc(-c2csc(/C(C#N)=C(\O)CN3CCN(C(=O)c4ccco4)CC3)n2)cc1,-3%
O=C(c1cccc(Cl)c1)N1CCN(c2ccccn2)CC1,-12%
O=C(CSc1n[nH]c(-c2cccs2)n1)N1CCN(S(=O)(=O)c2ccc3ccccc3c2)CC1,?
Cc1cccc(C(=O)N2CCC(=O)N(C(COCc3cccc(Cl)c3)Cc3ccccc3)CC2)c1 (stereo not drawn),-7%
CCC(Sc1nc2c(cnn2-c2ccccc2)c(=O)[nH]1)C(=O)OC (stereo not drawn),-20%
# (list continues)
SMILES,HPGD block
O=C(COC(=O)c1ccccc1Nc1ccccc1)NCc1ccco1,-19%
CCc1ccccc1NS(=O)(=O)c1ccc2[nH]cc(C(=O)NCc3ccco3)c(=O)c2c1,-7%
C=CCn1c(SCC(=O)NCCOC)nc2scc(-c3ccco3)c2c1=O,-13%
CC(C)c1cccc(C(C)C)c1NC(=O)COc1nncc2ccccc12,-6%
COc1cccc(Cn2c(=O)c(C)nc3cnc(OCc4ccccc4)nc32)c1,-22%
Cc1nc(OCc2ccccc2)c2sc3nc4c(cc3c2n1)COC(C)(C)C4,?
CN(C)/N=C/c1ccc(Sc2ccc([N+](=O)[O-])cc2[N+](=O)[O-])o1,-3%
CCOCCCn1c(C)nc2c(c1=O)c1nc3ccccc3nc1n2CCC1=CCCCC1,?
O=C(CCC1CCCCC1)Nc1c2c(nn1-c1ccc(F)cc1)CS(=O)C2 (stereo not drawn),-3%
COCCCNC(=O)CC(NCCCOC)C(=O)O (stereo not drawn),2%
C[C@@H](C(=O)NCc1cccc2ccccc12)[C@H]1C[C@]1(C)[C@H](NC(=O)OCc1ccccc1)c1ccccc1,?
O=C1c2ccccc2C(=O)N1Cc1nc(-c2ccccn2)no1,-4%
Cc1cccc(C)c1NC(=O)CN1C(=O)S/C(=C\c2cccn2C)C1=O,-10%
CCCCC(=O)Nc1ccc(C(=O)Nc2ccc(S(=O)(=O)N3CCCC3)cc2)cc1,-19%
c1ccc2nc(N3CCCC3)c(N3CCCC3)nc2c1,-27%
Cc1ccc(NC(=O)CN(C)c2ccc(S(=O)(=O)N3CCN(C)CC3)cn2)cc1,-20%
O=C(O)CN1C(=O)O[C@@H](c2ccccc2)C1=O,-7%
C=CCSC1=N/C(=C\c2ccc3c(c2)OCO3)C(=O)S1,-14%
CCCCC/C=C\C[C@@H]1O[C@H]1/C=C/C(O)C/C=C\CCCC(=O)O (stereo partly drawn),-3%
COc1cc(O)c2c(c1)COC2=O,-17%
Cc1cc(C(C#N)c2cccc(Cl)c2)n2ncnc2n1 (stereo not drawn),?
COc1ccc(CN2CCn3ncc(C(=O)Nc4cc(C)cc(C)c4)c3C2=O)cc1,?
O=C(NCCc1ccccc1)c1cc2ncc(Br)cn2n1,-15%
Cc1cc(C)c(NC(=O)c2ccc(S(=O)(=O)N3CCOCC3)cc2)c(C)c1,-4%
CSc1ccc(CCNC(=O)C2CCN(c3nnc(-n4cccc4)s3)CC2)cc1,2%
# Further entries follow:
SMILES,HPGD block
COc1ccc(NC(=O)C2CC2)cc1-n1cnnn1,14µM*
O=C(NC1CCCC1)C1CCCN1C(=O)Nc1ccccc1 (stereo not drawn),-2%
COc1ccc(NC(=S)NN(C)C(=S)Nc2ccc(OC)cc2)cc1,-22%
CS(=O)(=O)N(Cc1ccc(Cl)cc1)c1ccc(C(=O)NCCC2=CCCCC2)cc1,-10%
O=C(O)c1ccc2c(c1)N(Cc1ccccc1)C(=O)c1ccccc1S2=O (stereo not drawn),-3%
COc1ccc(-c2cc(C(F)(F)F)nc(-n3ccnc3C)n2)cc1,?
CC(Cc1cccs1)NC(=S)Nc1ccc(Cl)cc1 (stereo not drawn),?
CCC(=O)/C=C1\Sc2ccc(OC)cc2N1CCO,-4%
CCCn1nnc(NC(=O)c2cc(Br)ccc2OC)n1,-10%
O=C(OC1CCS(=O)(=O)c2sccc21)c1ccccc1 (stereo not drawn),-10%
COc1cc(/C=N/NC(=O)c2cnn3c(C)cc(-c4ccccc4)nc23)ccc1O,-3%
Cc1noc(/C=C/N(C)C)c1S(=O)(=O)N1CCCC(C(=O)NCc2ccc(Cl)cc2)C1 (stereo not drawn),-23%
CCN(CC1COc2ccccc2O1)C(=S)Nc1ccc(F)cc1 (stereo not drawn),-14%
CC(C)(C)c1ccc(C(=O)Nc2nonc2-c2nc3ccccc3[nH]2)cc1,?
COc1ccc(CNC(=O)C(NS(=O)(=O)c2ccc3c(c2)CCCN3C(C)=O)C(C)C)cc1 (stereo not drawn),-10%
COc1ccc(-n2nnnc2SCC(=O)c2cc3ccccc3o2)cc1,?
CN(C)S(=O)(=O)N1CCN(CC(O)COc2ccc(C(=O)c3ccccc3)cc2)CC1 (stereo not drawn),-2%
Cc1ccc(-c2cccc(C(=O)NCCc3ccccc3)n2)c2ccccc12,-16%
N/C(=N\OC(=O)c1cc(Cl)ccc1Cl)c1cccnc1,-25%
c1ccc(-c2cccc(N3CC[C@@]4(CCCNC4)C3)c2)cc1,-14%
CCOC(=O)CN1C(=O)N[C@@H](c2ccccc2)[C@H](C(=O)OC)[C@H]1C,-7%
Cn1c(=O)c([N+](=O)[O-])c(NCc2ccccc2)c2ccccc21,6.3µM*
NNC(=O)CCc1ccc2ccc3ccccc3c2c1,-11%
Cc1ccc(Nc2n[nH]c(C)c2[N+](=O)[O-])cc1C,-17%
COc1ccc(C(=O)N2CCN(S(=O)(=O)c3ccccc3)CC2)c(OC)c1,-2%

# Four compounds from above, ordered by number of heavy atoms, smallest number first.
SMILES,HPGD block
CN(C)/N=C/c1ccc(Sc2ccc([N+](=O)[O-])cc2[N+](=O)[O-])o1,-3%
O=C(COC(=O)c1ccccc1Nc1ccccc1)NCc1ccco1,-19%
O=C(CN1CCN(S(=O)(=O)c2ccc(Br)cc2)CC1)Nc1ccc2c(c1)OCO2,-11%
COc1ccc(CNC(=O)C(NS(=O)(=O)c2ccc3c(c2)CCCN3C(C)=O)C(C)C)cc1 (stereo not drawn),-10%

# The listing continues:
SMILES,HPGD block
CC(C)C(c1nnnn1CCc1ccccc1)N1CCOCC1 (stereo not drawn),-13%
Cc1nc(N2CCOCC2)c2nc(-c3ccccc3)n(CCN3CCOCC3)c2n1,?
Cc1ccc(NC(=O)C(=O)NCc2ccc(/C=N/NC(=O)c3c(C)nc4ccccn34)o2)cc1,?
COc1ccccc1C(=O)Nc1ccc(S(=O)(=O)N2CCOCC2)cc1,-1%
CCCCC(=O)OC1CCC2C3CCc4cc(O)ccc4C3CC[C@]12C (stereo partly drawn),-29%
CCCCNC(=O)Cc1ccc(C)cc1,?
Cc1sc(NC(=O)c2cc(-c3ccc(Cl)cc3)nc3ccccc23)c(C(N)=O)c1C,13µM*
CCCN(CCC)C(=O)NC1CC(=O)N(c2ccc(OC)cc2)C1 (stereo not drawn),6%
O=C(NC1CCCC1)C(c1ccc(F)cc1)N(Cc1ccc(Cl)cc1)C(=O)CCl (stereo not drawn),-3%
Cc1ccc(-n2nc(C)c3c2OC(N)=C(C#N)C3c2ccco2)cc1 (stereo not drawn),?
COCCN(C(=O)CSc1nncn1-c1ccccc1)c1c(N)n(Cc2ccccc2)c(=O)[nH]c1=O,-10%
O=C(Cc1ccc(-n2c(=O)c3ccccc3n(Cc3ccc(F)cc3)c2=O)cc1)NCC1CCCO1 (stereo not drawn),-14%
COc1ccc(/C=C/C(=O)c2sc(-c3ccccc3)nc2C)cc1,-9%
c1ccc(CN2COc3c(ccc4c5c(ccc34)CN(Cc3ccccc3)CO5)C2)cc1,3%
C=CCn1c(N)nc2ccccc21,-4%
O=c1oc(-c2cccs2)nc2scc(-c3cccs3)c12,-14%
COC(=O)c1cc2nc(-c3ccccc3)cc(C)n2n1,?
N#C/C(=C\c1cc2ccccc2nc1N1CCCCC1)C(N)=O,0%
O=C1C2C3C=CC(C4CC34)C2C(=O)N1/N=C/c1ccc(-c2ccc(Cl)cc2[N+](=O)[O-])o1 (stereo not drawn),?
CC(=O)NC(Cc1cc(C)ccc1C)C(=O)N1CCN(C(=O)Nc2ccc(C(C)=O)cc2)CC1 (stereo not drawn),-29%
Cc1ccccc1C1NS(=O)(=O)N=C1N (stereo not drawn),-5%
Cc1ccc(-c2nn(CCC(=O)NCC3CCCO3)c(=O)c3ccccc23)cc1 (stereo not drawn),-21%

# Grouped by structure: the entries above containing a furan ring, fused or not (13)
SMILES,HPGD block
COCCn1c(SCC(=O)NCc2ccco2)nnc1C(C)C,-6%
O=C(COc1cccc(NC(=O)c2ccco2)c1)c1ccc(F)cc1,-17%
C=CCn1c(SCC(=O)c2ccc(CNC(C)=O)o2)nc2ccccc2c1=O,-6%
Cc1nc(SCc2nc3ccccc3[nH]2)c2oc3ccccc3c2n1,-23%
Cc1ccc(-c2csc(/C(C#N)=C(\O)CN3CCN(C(=O)c4ccco4)CC3)n2)cc1,-3%
O=C(COC(=O)c1ccccc1Nc1ccccc1)NCc1ccco1,-19%
CCc1ccccc1NS(=O)(=O)c1ccc2[nH]cc(C(=O)NCc3ccco3)c(=O)c2c1,-7%
C=CCn1c(SCC(=O)NCCOC)nc2scc(-c3ccco3)c2c1=O,-13%
CN(C)/N=C/c1ccc(Sc2ccc([N+](=O)[O-])cc2[N+](=O)[O-])o1,-3%
COc1ccc(-n2nnnc2SCC(=O)c2cc3ccccc3o2)cc1,?
Cc1ccc(NC(=O)C(=O)NCc2ccc(/C=N/NC(=O)c3c(C)nc4ccccn34)o2)cc1,?
Cc1ccc(-n2nc(C)c3c2OC(N)=C(C#N)C3c2ccco2)cc1 (stereo not drawn),?
O=C1C2C3C=CC(C4CC34)C2C(=O)N1/N=C/c1ccc(-c2ccc(Cl)cc2[N+](=O)[O-])o1 (stereo not drawn),?

# This is a subset; count on the stated rates, not on these rows.
